ClpP mod = qHTS Assay for Activators of ClpP | purified B. subtilis ClpP, FRET peptide cleavage, 20 min | 340,000 compounds, 1.9% hits | ATP-dependent Clp protease proteolytic subunit (Bacillus subtilis (strain 168)), P80244 | Potency, µM (top dose mostly 57.5 µM), without a hit: top-dose activity change, negative = active; active = well fitted falling curve with a large enough effect; inconclusive = small, poorly fitted or top-dose-only effect; inactive = no such curve, though single readings can be large or run the other way; also: potency is read from the fitted curve at half-maximal effect; the source files actives as falling curves though it sought activators and does not explain the sign; nearly all actives have a fitted effect of over 65% in size; many hits overshoot -100%
Target sequence (P80244 whole entry, looked up): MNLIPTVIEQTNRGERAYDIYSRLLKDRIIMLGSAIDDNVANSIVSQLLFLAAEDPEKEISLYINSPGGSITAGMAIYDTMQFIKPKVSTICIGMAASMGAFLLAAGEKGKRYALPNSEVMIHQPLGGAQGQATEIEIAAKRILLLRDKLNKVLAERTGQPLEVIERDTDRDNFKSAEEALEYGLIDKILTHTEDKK
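Purified B. subtilis ClpP, 10 microg/mL final in Tris/HCl pH8 with KCl, BSA, glycerol and Tween-20, cleaved an Abz/nitrotyrosine-quenched decapeptide. Fluorescence (ex 320, em 430) was read at 0 and 20 min at room temperature. Delta was normalized to 5.8 microM ADEP and DMSO/no-enzyme controls.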
Sfp PPTase inh = qHTS Assay for Inhibitors of Bacillus subtilis Sfp phosphopantetheinyl transferase (PPTase). 4'-phosphopantetheinyl transferase ffp (Bacillus subtilis), Q9F4F7. Biochemical Sfp PPTase activity, qHTS. Potency, µM, inactives show max response, negative = inhibition, most hits filed as inhibitors. 310,000 compounds, 3.5% hits. AID 1490, 2009; active = well fitted inhibition curve with a large enough effect; inconclusive = small, poorly fitted or top-dose-only effect, or another doubt; inactive = no such curve, though single readings can be large or run the other way;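 also: the enzyme is Sfp with the accession as filed and its product quenches rhodamine fluorescence; potency is read from the fitted curve at half-maximal effect; 0% = enzyme reaction without inhibitor and -100% = no enzyme wells; top concentration of the series not given in the record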
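Step 1, compound plus 15 nM Sfp-PPTase, 15 min, room temperature. Step 2, add rhodamine-CoA (5 uM) and BHQ-2-YbbR (12.5 uM). Step 3, read 525/598 nm fluorescence at 0 and 30 min.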
Menin-MLL FL inh = qHTS Assay for Inhibitors Targeting the Menin-MLL Interaction in MLL Related Leukemias: Competition With Fluorescein Labeled MLL-derived Peptide. Fluorescence polarization, fluorescein-MLL peptide displacement from menin. FP activity change, % at 61.4 µM. 290,000 tested, under 10 active; inconclusive = falling polarisation curve, or a change in total fluorescence; inactive = total fluorescence flat and polarisation flat or rising; no compound was filed as active; the % refers to the polarisation; negative = inhibition;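 also: % of control where 0% means no effect; inhibitors lower the polarisation; unlabelled MLL peptide was the positive control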
CtBP-E1A blk = qHTS Assay for Inhibitors of the CtBP/E1A Interaction; CtBP / adenovirus E1A interaction (AlphaScreen); AlphaScreen GST-E1A/His-CtBP binding, 1536-well; active compounds read low; control for the full effect not named in the record; activity change, % (concentration not given with the values); 340,000 compounds, 0.49% hits; in the data active means activity change below about -65%; inconclusive means about -30% to -65%; inactive means above about -30%; also: % is scaled to controls: 0 for no effect and ±100 for the full control effect
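GST-E1A and His-tagged CtBP (125 nM each as 5X stock) were preincubated with pin-transferred compound for 2 h at 37 °C in the dark, then glutathione donor and nickel acceptor beads were added for 1 h before AlphaScreen reading.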
gsp ag = qHTS for Agonist of gsp, the Etiologic Mutation Responsible for Fibrous Dysplasia/McCune-Albright Syndrome: qHTS. gsp mutant cells, cAMP HTRF, 30 min; control for the full effect not named in the record. Potency, µM (top dose mostly 76.9 µM), for the others: top-dose activation (cAMP increase), most hits filed as activators. 340,000 compounds, 0.13% hits. AID 624287, 2012; active = well fitted activation curve with a large enough effect; inconclusive = small, poorly fitted or top-dose-only effect, or another doubt; inactive = no such curve, though single readings can be large or run the other way; cell line not stated here;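 also: phosphodiesterase inhibitor Ro 20-1724 added with compounds to block cAMP breakdown; potency is read from the fitted curve at half-maximal effect; nearly all actives have a fitted effect of over 60% in size; about a fifth of the inactives were tested at one dose only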
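Cells stably selected in G418 were plated at 2000/well, grown 16-24 hr, then given compounds in DMSO with the PDE inhibitor […] (300 uM solution added) for 30 min at 37C; cAMP was read by HTRF.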
gsp antag = qHTS for Antagonists of gsp, the Etiologic Mutation Responsible for Fibrous Dysplasia/McCune-Albright Syndrome: qHTS; gsp-mutant cells, cAMP HTRF, 30 min; control for the full effect not named in the record; Potency, µM (titrated, usually from 76.9 µM), inactives show at the top dose activity change, negative = inhibition, actives largely listed as inhibitors; 340,000 compounds, 0.4% hits; AID 624288, 2012; active = falling curve of any shape with a large fitted effect; inconclusive = falling curve, mostly with a smaller effect; inactive = flat or rising curve; cell line not stated here;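 also: intracellular cAMP measured with PDE inhibitor Ro 20-1724 present during compound exposure; potency is read from the fitted curve at half-maximal effect; % is scaled to controls: 0 for no effect and ±100 for the full control effect; nearly all actives have a fitted effect of over 65% in size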
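HTRF cAMP read-out (cAMP-d2 plus anti-cAMP antibody-K in lysis buffer, 30 min RT). Before lysis, cells are exposed to compounds with […] for 30 min at 37C in DPBS containing Ca/Mg, BSA and Tween 20.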
TRPV1 potentiator = HTS Assay for Compounds that Act as Potentiators of the Vanilloid Receptor 1; Transient receptor potential cation channel subfamily V member 1 (Homo sapiens), Q8NER1; TRPV1-expressing cells, Fluo-8 calcium influx, capsaicin EC20 potentiation; host cell line not named in the record; control for the full effect not named in the record; potentiation, % at 8.33 µM; 320,000 compounds, 0.02% hits; AID 540277, 2011; active means potentiation above 80%; inconclusive means 30% to 80%; inactive means below 30%; also: 0% is about no effect
Target sequence (Q8NER1 whole entry, looked up): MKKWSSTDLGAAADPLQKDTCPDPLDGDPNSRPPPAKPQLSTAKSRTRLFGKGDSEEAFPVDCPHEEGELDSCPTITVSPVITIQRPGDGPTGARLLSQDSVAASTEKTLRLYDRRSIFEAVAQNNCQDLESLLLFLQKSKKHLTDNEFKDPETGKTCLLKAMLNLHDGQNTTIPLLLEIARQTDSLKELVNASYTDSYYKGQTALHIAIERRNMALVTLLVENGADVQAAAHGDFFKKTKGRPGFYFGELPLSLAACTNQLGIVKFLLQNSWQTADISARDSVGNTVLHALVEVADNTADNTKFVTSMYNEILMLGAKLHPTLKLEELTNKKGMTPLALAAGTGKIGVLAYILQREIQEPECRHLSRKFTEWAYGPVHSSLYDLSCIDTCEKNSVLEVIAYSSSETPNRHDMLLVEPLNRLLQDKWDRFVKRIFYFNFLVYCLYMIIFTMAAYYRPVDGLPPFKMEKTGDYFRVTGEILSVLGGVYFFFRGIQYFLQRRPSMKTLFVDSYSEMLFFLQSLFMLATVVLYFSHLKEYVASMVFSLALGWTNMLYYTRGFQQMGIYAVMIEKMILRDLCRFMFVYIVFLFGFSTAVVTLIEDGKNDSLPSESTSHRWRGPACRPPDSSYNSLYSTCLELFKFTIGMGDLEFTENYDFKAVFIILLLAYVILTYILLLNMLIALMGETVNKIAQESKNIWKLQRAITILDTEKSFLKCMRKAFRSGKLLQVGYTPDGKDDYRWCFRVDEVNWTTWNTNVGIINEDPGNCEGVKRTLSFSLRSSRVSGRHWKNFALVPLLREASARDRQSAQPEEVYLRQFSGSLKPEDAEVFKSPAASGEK
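TRPV1-expressing cells were cultured overnight at 35.5C and loaded with Fluo-8 calcium dye for 40 to 90 min at room temperature. After a 10 s baseline, compound was added and calcium influx was read kinetically for 3 min (ex 480/em 520 nm).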
Active calls of the source: *; ? = inconclusive; nt = not tested or not shown; & = joins results of further samples; [ ] = dose if it differs, or a comment.

SMILES | ClpP mod | Sfp PPTase inh | Menin-MLL FL inh | CtBP-E1A blk | gsp ag | gsp antag | TRPV1 potentiator
Cc1ccc2nc3c(c(C(=O)OCC(=O)N(C)C4CCS(=O)(=O)C4)c2c1)CCCC3 (stereo not drawn) | nt | 10.4% | 0.3 | -18.2 | 6.3%[15.4 µM] | nt | -6.1
O=C(Cn1nnc(-c2ccccc2F)n1)NCCc1ccccc1 | 2.6% | 13.5% | -0.9 | 4.4 | -39.4%[inhibitor] | 0.0% | -6.9
COc1ccc(S(=O)(=O)N2CCCC2CNC(=O)C(=O)NC2CCCC2)cc1 (stereo not drawn) | 2.3% | nt | nt | 2.9 | -23.8% | nt | nt
Cc1onc(-c2c(Cl)cccc2Cl)c1C(=O)NCC1CCCO1 (stereo not drawn) | -0.6% | 17.8% | -1.8 | 6.8 | -23.6% | -5.1% | -3.0
CCc1ccccc1NC(=S)N(CCN(C)C)Cc1cccs1 | nt | 0.6% | -2.6 | -4.3 | 3.5%[15.4 µM] | 7.0% | 5.5
CC(=O)N1C[C@H]2CON(C)[C@H]2C[C@H]1c1cccc(N2CCOCC2)c1 | -2.9% | nt | nt | 0.0 | -65.4%[inhibitor] | nt | nt
O=C(NC1CC1)C1=C[C@H](c2coc3ccccc3c2=O)C[C@H](OCc2ccc(CO)cc2)O1 | -16.5% | nt | nt | -1.9 | nt | -1.6% | nt
CS(=O)(=O)N(CCc1ccccc1)CC(=O)NCc1ccccc1Cl | nt | -6.7% | -6.0 | 4.0 | ? | 5.8% | 4.2
CC(=O)Nc1cccc(NC(=O)CSc2nnc3ccc(-c4cccnc4)nn23)c1 | nt | nt | nt | -13.6 | 5.8%[15.4 µM] | 4.9% | -4.3
Cc1ccc(-n2ncc3c2CC(C)(C)CC3NC(=O)c2c(C)noc2C)cc1 (stereo not drawn) | 7.5% | 2.9% | nt | -3.2 | -48.4%[inhibitor] | -2.4% | 24.5
Cc1ccccc1Oc1ccc2c(c1)[C@@H]1C[C@H](N(C)C(=O)c3ccc(C#N)cc3)[C@H]([C@H](C)O)C(=O)N1CC2 | -1.4% | nt | nt | -0.4 | nt | -13.6% | nt
O=C(c1ccc(Cl)cc1)N1CCN(C(=O)C2CCCCC2)CC1 | nt | 13.8% | nt | 3.1 | 20.0%[15.4 µM] | 5.2% | 10.0
Cc1ccc(N2CC(C(=O)Nc3ccc(S(=O)(=O)Nc4nccs4)cc3)CC2=O)cc1C (stereo not drawn) | nt | 23.4% | 7.7 | -23.5 | -11.6%[15.4 µM] | 9.9% | 24.2
Cc1ccc(NC(=S)NCCc2ccc(Cl)cc2)c(C)c1 | 0.0% | 13.2% | -1.1 | -7.9 | 2.5%[15.4 µM] | -17.4% | -6.6
COc1ccc(C(=O)C2CCN(C(=O)c3ccc(F)cc3)CC2)cc1 | -0.3% | 3.6% | -0.3 | 8.7 | -1.4%[15.4 µM] | -2.8% | -16.7
NCC/C=C1/c2ccccc2CSc2ccccc21 | 0.0% | 2.5% | 3.0 | -1.1 | -6.1% | 23.0% | 8.3
CCOCCCNCc1ccc(OCCC(C)C)c(OC)c1 | nt | ? | -6.2 | 11.2 | -0.4%[15.4 µM] | 16.4% | -7.8
O=C(NC1=NCCS1)c1ccc(C(F)(F)F)cc1 | -0.7% | 9.7% | 7.2 | 7.2 | ? | 12.7% | -16.8
CC(=O)c1ccc(N2CCN(S(=O)(=O)c3ccc(-c4cnc(C5CC5)o4)cc3)CC2)cc1 | -19.3%&-20.0% | 6.8% | nt | 2.3 | 10.2% | -12.0% | 14.4
C=C(C)COc1ccc(-c2[nH]ncc2Oc2ccc(OC)cc2)c(O)c1 | -3.8% | 29.7% | 4.5 | 7.2 | -0.5% | 6.1% | -2.5
CC1CCN(S(=O)(=O)c2ccc(NC(=O)CN3C(=O)NC(C)(c4ccccc4)C3=O)cc2)CC1 (stereo not drawn) | nt | nt | nt | -0.4 | 9.8%[15.4 µM] | -2.2% | 4.0
O=C(c1ccco1)N1CCN(Cc2ccccc2F)CC1 | nt | -29.6% | 5.2 | 3.7 | -11.6% | 7.3% | -6.7
COc1ccc(NC(=O)Cn2cnc3ccccc3c2=O)cc1OC | -0.9% | 10.2% | -2.4 | 11.7 | ? | 11.3% | 2.4
CC(C)(C)c1ccc(C(=O)O/N=C(\N)Cc2cccs2)cc1 | 1.8% | nt | nt | -0.4 | 3.6% | nt | nt
Cc1ccc2oc(-c3ccco3)cc(=O)c2c1 | nt | 16.9% | -0.9 | -2.5 | 2.6%[15.4 µM] | -9.5% | 5.1
COc1ccc(S(=O)(=O)N(C)CC(=O)N2CCN(c3ccc(F)cc3)CC2)cc1OC | 1.1% | -3.2% | 3.8 | 2.8 | -8.1% | -7.3% | -5.2
O=C(c1cc2cc(Cl)ccc2oc1=O)N1CCCCCCC1 | -5.5% | 12.0% | -0.5 | nt | -34.7%[inhibitor] | -4.0% | 4.0
CCOC(=O)c1ccc2nc(C)c3c(c2c1)OC(C)C3 (stereo not drawn) | 31.6µM* | 3.0% | -2.9 | -0.6 | -1.6% | -1.2% | -16.3
Cc1oc(-c2cccc(F)c2)nc1CN1CCCN(C(=O)c2ccco2)CC1 | 2.5% | 26.3% | nt | 2.6 | 20.2% | -6.9% | -5.8
CC1CCCCN1CC(=O)Nc1ccc(Oc2ccccc2)cc1 (stereo not drawn) | -2.9% | 0.7% | 1.4 | 0.2 | -2.2% | 2.6% | 1.5
Cc1cc(C)c(-n2c(SCc3nc4ccccc4s3)n[nH]c2=O)c(C)c1 | -5.6% | 4.4% | 0.7 | -13.6 | -1.7%[15.4 µM] | -5.9% | 19.6
CC(C)C(C(=O)Nc1ccc(S(=O)(=O)N2CCOCC2)cc1)N1C(=O)c2ccccc2C1=O (stereo not drawn) | 0.3% | -11.1% | -1.7 | 4.6 | -1.6% | -11.7% | -16.4
CCCCCC(=O)N1CCCC(c2nc(-c3ccc(OC)cc3)no2)C1 (stereo not drawn) | 0.5% | 9.8% | 0.7 | 14.0 | -33.5%[inhibitor] | ? | -2.3
O=C(COC(=O)c1ccc2c(=O)n3c(nc2c1)CCC3)Nc1ccc(OC(F)F)cc1 | nt | 18.2% | -0.6 | 9.3 | ? | -14.7% | -6.8
Fc1cccc(NC(=S)N2CCCC2)c1 | nt | 5.6% | 0.6 | -23.5 | 38.1% | 9.4% | 4.5
Cc1ccc(-c2noc(CN(C(=O)C(c3ccccc3)c3ccccc3)C(C)C)n2)cc1 | -0.4% | 9.6% | -0.3 | 2.3 | -12.6% | ? | 9.4
COc1ccc(Cc2nnc(N/N=C/c3ccc(N(C)C)cc3)[nH]c2=O)cc1OC | nt | -20.4% | -4.1 | -6.0 | 23.3%[15.4 µM] | 4.9% | -3.6
COc1ccc(/C=N/NC(=O)Cn2c(Cc3ccc(OC)c(OC)c3)nc3ccccc32)cc1OC | 0.7% | 4.6% | 6.1 | ? | ? | 11.6% | -5.3
O=C(CC(=O)c1ccncc1)c1ccccc1 | 0.5% | nt | nt | -1.1 | 14.9% | -5.1% | nt
COc1ccc(C(=O)OC(C)C(=O)NC2CCCCC2C)cc1S(=O)(=O)N1CCOCC1 (stereo not drawn) | -1.2% | nt | nt | 11.3 | -54.3%[inhibitor] | 8.4% | -4.6
Cc1ccc(/C=C/C(=O)NC2CCCCCCC2)o1 | -4.9% | -116.8% | 17.2 | -11.9 | -1.9% | -4.5% | -21.0
Cc1ccc2nc(N(CCCN(C)C)C(=O)c3cc4ccccc4oc3=O)sc2c1 | -1.9% | -5.8% | 9.6 | 2.0 | -4.8% | 13.4% | 17.1
O=C(/C=C/c1c(Cl)nc2ccccn12)Nc1ccc(F)cc1 | nt | 20.2% | -4.8 | -13.3 | -14.9% | -6.3% | -13.3
Cc1cccc(CC(=O)Nc2cccnc2)c1 | -3.0% | 15.4% | -5.7 | nt | -9.0% | 9.0% | -6.0
O=C(OCC(=O)c1ccc[nH]1)c1ccc(S(=O)(=O)N2CCCCCC2)cc1 | -4.1% | 22.5% | 0.8 | -10.0 | -9.3% | -0.8% | -2.5
COc1cc(OC)c2c(-c3ccccc3)cc(=O)oc2c1C(CC(=O)N1CCCC1)c1ccc2c(c1)OCO2 (stereo not drawn) | ? | -12.5%&-11.3% | 6.0&6.7 | -15.3 | nt | -10.4% | 25.5
CCn1cc(CNC(=O)/C=C/c2ccc([N+](=O)[O-])cc2)cn1 | 0.7% | 6.9% | 1.3 | 12.5 | ? | 2.6% | 0.3
COc1ccc(/C=C/C(=O)OCC(=O)NC(=O)NC(C)(C)C)cc1 | nt | 16.1% | -2.3 | -7.9 | -3.7%[15.4 µM] | nt | 7.3
CCN(CC)C(=O)[C@H]1C[C@H](CC(=O)NCCCn2ccnc2)C(=O)N2CCc3c([nH]c4cc(CCC(=O)N(C)C)ccc34)[C@]12C | -4.6% | nt | nt | -0.4 | nt | 7.6% | nt
COC(=O)C1=C(Cn2cnc3ccccc32)NC(=O)NC1c1cc(C)ccc1C (stereo not drawn) | -1.8% | 0.2% | 5.9 | -13.3 | -29.3% | 6.4% | -6.1
COc1cc(C2NC(=O)NC(C)=C2C(=O)OC2CCCCC2)cc(Cl)c1O (stereo not drawn) | nt | 4.2% | 0.1 | 11.9 | -5.7% | -17.1% | -1.7
Cc1ncc([N+](=O)[O-])n1Cc1ccc(F)cc1 | nt | 15.3% | 3.6 | 2.6 | -21.5%[15.4 µM] | 16.3% | -1.4
